Screening results (PubChem)
Rango complex inh – Rango-importin beta binding inhibition | Q14974 | Potency, µM (doses to about 92.2 µM), for the others: at the highest dose inhibition of complex formation | AID 540263 | Rango CFP/YFP FRET sensor + importin beta, 45 min | hit rate 0.031% among 340,000; active = rising FRET ratio curve, often small or poorly fitted; inconclusive = mostly compound fluorescence or quenching in the first reads; inactive = flat curves in all reads;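 also: potency is read from the fitted curve at half-maximal effect; 0% = DMSO wells and 100% = buffer wells lacking importin beta; nearly all actives have a fitted effect of over 15% in size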
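Inhibition scored from the CFP 486 nm/YFP 530 nm FRET ratio 45 min after adding 0.125 microM importin beta to 50 nM Rango biosensor preincubated 5 min with compound (room temperature, PBS with DTT, Tween-20, BSA). No-importin wells as positive control.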
Rango dissoc inh – prevents RanGTP from dissociating the Rango-importin beta complex. O95149+P62826. Biochemical FRET Rango-importin beta, RanGTP-induced dissociation. Potency, µM (series often up to 46.1 µM), without a hit: top-dose activity change, negative = inhibition. hit rate 0.071% among 340,000. AID 540253; active means falling FRET ratio curve, often poorly fitted, with flat reads before Ran was added; inconclusive means other falling curves, or compound fluorescence or quenching; inactive means flat or rising ratio curve;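 also: potency is read from the fitted curve at half-maximal effect; % of control where 0% means no effect; nearly all actives have a fitted effect of over 45% in size; -100% = wells without RanGTP and RCC1; the record marks most hits as doubtful in a second field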
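Rango (0.1 uM)–importin beta (0.25 uM) complex; RanGTP-RCC1 trigger; 45 min RT; CFP/YFP FRET read.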
GLA inh pH 4.5 – alpha-galactosidase A (human) inhibition, pH 4.5; purified enzyme, 4-MU-alpha-Gal fluorescence, pH 4.5; 230,000 tested, under 10 active; AID 1467; activity change, negative = inhibition, % at 105 µM; P06280; inconclusive = small, poorly fitted or top-dose-only inhibition, or a rising curve; inactive = flat fitted curve, though single readings scatter; no compound was filed as active;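 also: 0% = full activity with enzyme and -100% = basal without enzyme; dose as in the result columns while the protocol names 77 µM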
Target sequence (P06280 whole entry, looked up): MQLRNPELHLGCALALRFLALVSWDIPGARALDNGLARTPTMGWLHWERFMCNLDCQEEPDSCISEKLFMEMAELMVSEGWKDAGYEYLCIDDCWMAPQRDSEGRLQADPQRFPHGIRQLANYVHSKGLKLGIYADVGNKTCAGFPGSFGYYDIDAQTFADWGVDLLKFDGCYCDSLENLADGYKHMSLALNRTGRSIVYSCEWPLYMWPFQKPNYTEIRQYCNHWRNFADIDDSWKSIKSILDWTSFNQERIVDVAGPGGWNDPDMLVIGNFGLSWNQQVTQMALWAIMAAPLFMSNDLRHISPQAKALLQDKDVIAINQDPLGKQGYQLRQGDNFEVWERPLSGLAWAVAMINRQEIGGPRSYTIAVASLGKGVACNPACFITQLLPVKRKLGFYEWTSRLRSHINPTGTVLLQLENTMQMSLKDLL
miR-21 reporter – miR-21 reporter, rising signal. HeLa miR-21 FLuc reporter, luciferase, 48 h. Potency, µM (series often up to 38.3 µM), for inactives: at the top dose reporter change, positive = more light. 340,000 tested, under 10 active. AID 2288; active = well fitted rising curve with a large enough effect; inconclusive = small, poorly fitted or top-dose-only effect; inactive = no such curve, though single readings can be large or run the other way;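 also: % of control where 0% means no effect; miR-21 action dims this reporter so a rising signal means less miR-21 action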
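Compounds were titrated across several concentrations (up to approximately 40 uM) and incubated 48 hours with HeLa miR-21-FLuc reporter cells (miR-21 target sequence downstream of FLuc, endogenous miR-21). Readout was firefly luciferase luminescence after lytic detection reagent.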
Active calls of the source: *; u = inconclusive; x = no result given; & = joins results of further samples.

#	compound	miR-21 reporter	Rango dissoc inh	Rango complex inh	GLA inh pH 4.5
1	COC(=O)C1=CO[C@@H](O)C2C(CO)=CCC12 (stereo partly specified)	x	-3.7%	-1.8%	x
2	CCNc1ccc(C(=O)OCC(=O)NCc2ccccc2Cl)cc1[N+](=O)[O-]	-1.2%	-8.0%	0.2%	4.2
3	Cn1cnc(C(=O)N2CCc3ccccc3C2)c1C(=O)N1CCc2ccccc2C1	x	-0.3%	0.5%	x
4	COC(=O)CNC(=O)COC(=O)c1cc(SC)ccc1Cl	-2.0%	-6.0%	-1.8%	3.6
5	Cc1nc2ccccc2nc(C)c1=NOCC(=O)N(c1ccccc1)C(C)C	-46.3%	-5.9%	-0.1%	6.7
6	O=C1NCCCC1C(=O)N/N=C/c1cccc(O)c1 (stereo unspecified)	-3.0%	7.8%	-0.7%	4.7
7	Cn1c(=O)c2c(ncn2Cc2ccc(Cl)cc2)n(C)c1=O	15.2%&21.6%	1.9%	-1.8%	1.9
8	Cn1nc(-c2ccc(Cl)cc2)c2cc(C(=O)NCc3ccco3)sc21	15.1%	-9.6%	-1.0%	-11.5
9	CC(C)(C)NC(=O)N1c2ccccc2Sc2ccccc21	7.7%	2.3%	2.2%	x
10	COc1ccc(-c2ccc(NS(=O)(=O)c3cc([N+](=O)[O-])ccc3C)cc2)nn1	-7.2%	13.6%	1.6%	x
11	Cc1cc(F)c(F)c(C(=O)NC2CC2)c1Cl	1.7%	-13.6%	u	7.2
12	COc1ccc(NC(=O)CN(C)C(=O)c2oc3ccccc3c2C)cc1	-0.1%	17.8%	-3.8%	-4.7
13	Cc1cccc(N2CCN(C(=O)c3ccc(NS(=O)(=O)c4ccc5[nH]c(=O)[nH]c5c4)cc3)CC2)c1C	-0.3%	4.9%	2.1%	x
14	C/C(Cl)=C\Cn1c(Nc2ccc(C)cc2)nc2c1c(=O)n(C)c(=O)n2C	1.7%	-14.6%	0.3%	-5.2
15	COc1ccc(CN(C)S(=O)(=O)c2nnc(NC(=O)c3ccccc3)s2)cc1OC	-3.0%	-9.7%	-6.1%	x
16	Cc1ccn2cc(C(=O)NCc3ccco3)nc2c1	-34.4%	-2.6%	-0.7%	4.2
17	Cc1cccc(NC(=O)c2cccc(N3C(=O)C4CCC(C)CC4C3=O)c2)c1C (stereo unspecified)	0.4%	19.6%	4.0%	x
18	CSc1nnc2c(n1)OC(c1cccn1C)N(C(C)=O)c1ccccc1-2 (stereo unspecified)	-2.6%	5.7%	0.3%	5.8
19	COc1cccc(C(=O)NCCS(=O)(=O)NCCCc2ccccc2)c1	x	-2.0%	2.3%	x
20	COc1ccc(C(=O)NCCSCc2cccc(Cl)c2)cc1OC	3.2%	30.3%	-2.5%	x
21	Cc1cc(NC(=O)COC(=O)/C=C/c2ccc(C)o2)no1	x	0.4%	4.8%	x
22	Cc1ccc(OS(=O)Nc2cccc3nccnc23)cc1 (stereo unspecified)	-11.2%	1.2%	-2.2%	2.1
23	COc1ccc(-c2nnc(SCC(=O)O)n2Cc2ccccc2)cc1	-0.1%	4.9%	3.3%	x
24	Cc1csc2nc(CNC(=O)C3CCCCC3)cn12	-13.2%	7.6%	u	1.5
25	Cc1ccc(NC(=S)NC(=O)c2c(-c3ccccc3Cl)noc2C)cc1	-17.3%	2.7%	-0.7%	7.9
26	COC(=O)c1nn(-c2ccc(Cl)cc2)c(=O)cc1Sc1ccccn1	-0.2%	4.3%	-5.8%	1.1
27	CC(=O)n1cc([C@H]2C=C(C(=O)Nc3ccccc3)O[C@@H](OCc3ccc(CO)cc3)C2)c2ccccc21	16.1%	-4.0%	u	5.2
28	O=C(O)c1c[nH]c2ccc([N+](=O)[O-])cc2c1=O	x	37.4%	0.0%	x
29	N/C(=N\OC(=O)c1ccc2ccccc2c1)c1ccccc1Cl	u	-7.3%	0.5%	x
30	O=NN1CCN(c2ccncc2S(=O)(=O)N2CCCCC2)CC1	2.0%	-9.4%	0.2%	x
31	O=C(CCCc1ccccc1)Nc1cccc(C(=O)O)c1	-62.7%	-7.3%	-0.8%	6.1
32	COc1ccc(S(=O)(=O)N2CCCCCC2)cc1NC(=O)c1c2c(nc3ccccc13)CCN(Cc1ccccc1)C2	4.1%	-1.6%	u	-7.6
33	CN(C(=O)CSc1cccc[n+]1[O-])c1ccccc1	x	9.1%	5.2%	x
34	O=C(CCC1CCCCC1)Nc1nccs1	-40.6%	-9.1%	1.2%	-7.3
35	COc1ccc(-c2nc(CS(=O)CC(=O)NCCC3=CCCCC3)c(C)o2)cc1 (stereo unspecified)	-37.0%	0.5%	-0.2%	-1.8
36	CCOc1ccc(S(=O)(=O)N(CCO)CCO)cc1-c1nc2c(C(C)(C)C)nn(C)c2c(=O)[nH]1	-10.7%	1.4%	0.7%	4.9
37	CCOc1nc(-c2ccc(Cl)cc2Cl)ccc1C#N	-8.6%	11.9%	-1.3%	-0.7
38	CC(C(=O)N1CCCCC1)n1ncn2cccc2c1=O (stereo unspecified)	-1.4%	-0.6%	-1.5%	4.4
39	COc1ccc(C(=O)NCCc2nnc(SCC(=O)Nc3ccccc3F)n2C)cc1	-16.6%	-25.1%	-2.2%	3.8
40	CCN1CCN(CC(O)COc2ccc3c(C)cc(=O)oc3c2)CC1 (stereo unspecified)	-0.9%	-8.2%	-2.2%	8.4
41	Cc1ccc(C)n1-c1ccc(N2CCOCC2)cc1	1.3%	-11.2%	-4.0%	12.0
42	CCOc1ccccc1C(=O)N1CCN(c2ccc(C(F)(F)F)cn2)CC1	8.7%	0.4%	-0.1%	-1.2
43	Cc1ccc(NS(=O)(=O)c2ccc(OCC(=O)N3CCOCC3)cc2)cc1	2.2%	-15.8%	-3.3%	-0.7
44	C[C@@H](C(=O)N[C@H](C(=O)O)c1ccccc1)n1nnc2ccccc2c1=O	-0.1%	10.7%	3.0%	1.9
45	Nc1ccc(NC(=O)c2ccccc2)c2c1C(=O)c1ccccc1C2=O	2.1%	0.3%	-0.8%	6.7
46	Cc1ccccc1Cn1c(C)nc2ccc([N+](=O)[O-])cc2c1=O	-0.2%	0.5%	58µM*	x
47	CCOc1cccc(=O)c2c(C)n(CC3CCCO3)c(C)c12 (stereo unspecified)	-5.9%	u	u	-2.4
48	CCn1c(CNC(=O)C23CC4CC(CC(C4)C2)C3)nnc1SC	5.1%	5.3%	-2.5%	-14.5
49	CC(=O)c1ccc(S(=O)(=O)Nc2ccc(-n3c(C)nc4ccccc4c3=O)cc2)cc1	x	11.1%	0.0%	x
50	COCCN(C(=O)c1ccc(COc2ccccc2)o1)c1c(N)n(CC(C)C)c(=O)[nH]c1=O	x	-4.6%	-0.5%	x
51	CCCCOc1ccccc1C(=O)N(Cc1ccco1)C1CCS(=O)(=O)C1 (stereo unspecified)	-0.4%	20.8%	1.5%	x
52	Cc1ccccc1C(=NC(=O)c1ccccc1)c1ccccc1	-2.5%	-11.6%	4.3%	10.3
53	CC(=O)Nc1ccc2c3c(cccc13)C(=O)N(c1ccccc1)C2=O	-0.6%	u	u	23.5
54	Cc1ccc(OCc2nnc(SCC(=O)C(C)(C)C)n2Cc2ccco2)cc1	5.6%	-5.3%	5.0%	-6.9
55	CC(C)c1ccc(CN(C(=O)C2COc3ccccc3O2)C2CCS(=O)(=O)C2)cc1 (stereo unspecified)	4.2%	37.4%	0.2%	-7.4
56	COc1ccc(C(=O)N[C@H](C(=O)Nc2sccc2C(N)=O)C(C)C)cc1	-5.2%	-3.2%	-0.3%	x

(next part)
#	compound	miR-21 reporter	Rango dissoc inh	Rango complex inh	GLA inh pH 4.5
57	CCCCOc1ccc(S(=O)(=O)Nc2cccnc2)cc1	15.3%	0.7%	0.0%	-8.9
58	COc1ccccc1Nc1nc(-c2cccc([N+](=O)[O-])c2)nc2ccccc12	6.6%	-2.7%	2.9%	u
59	COc1ccc(CNc2nc3nc(C)c(Cl)c(=O)n3[nH]2)cc1OC	-3.2%	7.5%	-0.9%	0.2
60	CC1=NN(c2ccccc2)C(=O)C1C=Nc1ccccc1O (stereo unspecified)	9.2%	-9.0%	u	-7.3
61	O=C(COC(=O)c1c2c(nc3ccccc13)CCCC2)c1ccc(Br)s1	7.9%	15.8%	1.0%	-2.8
62	O=C(NCCc1ccc2c(c1)OCCO2)c1cccc(F)c1	-27.2%	-2.0%	-0.7%	2.5
63	O=C(CCOc1ccccc1)Nc1ccnn1C1CCN(Cc2ccccc2)CC1	1.9%	-7.7%	-0.8%	x
64	CCN(c1ccccc1)S(=O)(=O)c1cc2c(cc1C)NC(=O)CO2	2.5%	0.9%	-4.5%	x
65	CC(C)Cc1nccs1	x	12.7%	-3.3%	x
66	CCOC(=O)c1cc2c(C)n(-c3ccc(OCC)cc3)c(C)c2cc(C(=O)OCC)c1=O	2.5%	u	u	10.8
67	Cc1c(C(=O)NCCC2=CCCCC2)oc2ccc(S(=O)(=O)N3CCOCC3)cc12	24.1%	-2.3%	u	-6.0
68	CN1/C(=c2/s/c(=C3/C(=O)N(c4ccccc4)NC3=Nc3ccccc3)n(C)c2=O)C(C)(C)c2ccccc21	8.9%	-10.4%	1.7%	-6.1
69	Cc1ccc(Nc2ccccc2N)cc1	-8.0%	-4.5%	6.0%	0.4
70	COc1ccccc1C(c1nnnn1Cc1ccccc1)N1CCC(C(N)=O)CC1 (stereo unspecified)	-6.6%	6.4%	-2.6%	0.5
71	COCCCN1C(=O)C(=O)/C(=C(/O)c2ccccc2)C1c1ccc2c(c1)OCO2 (stereo unspecified)	-6.2%	14.2%	-1.1%	-7.6
72	COc1ccc(N2CCN(CC(=O)Nc3ccc(SC(F)F)cc3)CC2)cc1	-6.6%	13.2%	-1.5%	-3.4
73	CCOC(=O)C1CCCN(C(=O)c2cc(Cl)ccc2NC(=O)C2=C(C)OCCS2)C1 (stereo unspecified)	-0.8%	-9.2%	-1.1%	x
74	Cc1noc(NS(=O)(=O)c2ccc(NC(=O)C34CCC(CC3)C4)cc2)c1C	-4.3%	10.4%	-1.7%	1.6
75	Cc1cc(-c2ccc(/C=N/n3cnnc3)o2)c([N+](=O)[O-])cc1C	-31.2%	5.1%	8.2%	10.4
76	C=CCSC1=C(C#N)C(c2ccc(C(C)C)cc2)CC(=O)N1 (stereo unspecified)	-4.6%	-0.6%	0.2%	-2.0
77	CC(C)OCCCNC(=O)C(NC(=O)c1ccc(Cl)cc1)C(C)C (stereo unspecified)	1.4%	-16.1%	u	10.1
78	CN(C)/C=C/C(=O)c1ccc(Cl)s1	-27.1%	25.5%	2.3%	-9.6
79	Cc1nnc(SCC(=O)N2CCCCC2)s1	-11.9%	-0.4%	0.1%	-4.5
80	CCOc1cccc(/C(O)=C2/C(=O)C(=O)N(CCOC)C2c2ccc(C)o2)c1 (stereo unspecified)	-3.1%	15.4%	-3.1%	-26.0
81	CCCCNC(=O)N(O)C1N(CCCC)C(=O)N(CC(=O)OC)C1(C)C (stereo unspecified)	-2.4%	-6.3%	8.5%	3.1
82	CCCCOc1ccc(-c2nnc(N)s2)cc1	-69.3%	0.7%	4.3%	0.8
83	O=c1[nH]c2nc(Br)[nH]c(=O)c2[nH]1	x	3.9%	1.3%	x
84	Cc1ccccc1-n1ncc2c1CC(C)(C)CC2NC(=O)CCN1Cc2ccccc2C1=O (stereo unspecified)	4.9%	1.1%	-0.2%	x
85	Cc1cccc(Nc2nc(-c3ccccc3)c(C(=O)Nc3cccnc3)s2)c1	-6.0%	-16.2%	u	-10.6
86	Cc1ccccc1NC(=O)COC(=O)c1ccc2c(c1)C(=O)N(CCCN1CCOCC1)C2=O	x	-22.5%	u	x
87	O=C(Nn1c(-c2ccncc2)nc2ccccc2c1=O)c1ccc(Br)cc1	1.1%	-4.1%	0.3%	0.8
88	CC(OC(=O)Cn1[nH]c(=O)c2ccccc2c1=O)C(=O)Nc1ccc(Cl)cn1 (stereo unspecified)	x	4.4%	3.9%	x
89	CCC(=O)N1CCc2cc(Br)cc(S(=O)(=O)N3CCC(C(=O)NCCCOC(C)C)CC3)c21	u	17.4%	0.9%	x
90	COC(=O)CSc1nnc(CNC(=O)c2ccc(S(=O)(=O)N3CCCCC3)cc2)n1C	-2.4%	-7.4%	0.0%	2.3
91	COc1ccc(Nc2ncccc2C(=O)NCc2ccccc2)cc1	-10.4%	-10.6%	-0.9%	3.0

The list is partial, so the mix of outcomes need not match the whole.
